FGF22 binding: shifts melting point of recombinant human FGF22; 1.5% of 340,000 active; Q9HCT0; recombinant FGF22 thermal shift, SYPRO orange fluorescence; percent of sucrose octasulfate shift, DMSO zero; calls only at 9.99 µM; AID 651658;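 active = melting point raised past a set limit in the mean and every replicate; inconclusive = no clear call; three in four hits are not shown here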
rRNA inh HTS: inhibits bacterial ribosomal RNA function over humanized ribosomes; E. coli WT GFP vs humanized-ribosome RFP mutants, fluorescence, 24 h; hits give low values; DMSO median 0, no signal -100; AID 720706; GFP signal change (wild-type ribosome), % (no concentration beside the values); 1.6% of 350,000 active;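 active = significant combined selectivity score with lowered wild-type GFP, culture density cut under 30%, mutant RFP and density less affected; inactive = any of these conditions unmet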; note: one replicate is shown; some compounds called inactive have numbers as strong as hits
AF4-AF9 inh: inhibitors of human MLL-AF4/AF9 interaction; P42568; AID 651704; 0.47% of 350,000 active; AlphaScreen, biotin-AF4 peptide binding to FLAG-AF9; inhibition, % at 10 µM;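 active = every replicate reaching a set inhibition limit, whatever the replicate mean, cut at about 25% in these data; inconclusive = mean inhibition reaches that limit but some replicates miss it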;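 note: 0% = plate neutral control median and 100% = total signal loss; the record names both 10 and 1 µM as test concentration; the first replicate is given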
Target sequence (P42568 whole entry, looked up): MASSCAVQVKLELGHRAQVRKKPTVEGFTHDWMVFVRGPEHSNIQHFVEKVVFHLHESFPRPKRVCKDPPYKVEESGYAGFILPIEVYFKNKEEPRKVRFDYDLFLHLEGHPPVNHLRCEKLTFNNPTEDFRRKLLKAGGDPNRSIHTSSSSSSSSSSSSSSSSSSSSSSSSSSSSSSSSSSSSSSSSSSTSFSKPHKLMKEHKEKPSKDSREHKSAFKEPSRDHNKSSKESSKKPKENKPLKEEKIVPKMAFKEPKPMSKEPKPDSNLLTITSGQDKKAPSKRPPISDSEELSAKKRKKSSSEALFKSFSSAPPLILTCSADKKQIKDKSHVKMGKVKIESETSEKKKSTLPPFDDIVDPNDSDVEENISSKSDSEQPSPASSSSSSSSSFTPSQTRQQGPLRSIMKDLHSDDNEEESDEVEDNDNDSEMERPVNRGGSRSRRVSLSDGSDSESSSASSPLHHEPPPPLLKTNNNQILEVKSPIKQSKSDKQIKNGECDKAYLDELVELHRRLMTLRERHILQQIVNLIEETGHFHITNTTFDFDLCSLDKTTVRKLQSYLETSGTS
T cruzi inh: T. cruzi replication inhibition. 1.4% of 300,000 active. inhibition, % (concentration not given with the values). AID 1885. T. cruzi beta-gal in NIH3T3, luminescence, 90 h;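 active = mean inhibition across valid replicates above about 55%, limit read from the data; inconclusive = mean below that limit but half or more replicates reach it; inactive = mean below it, under half of replicates reach it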;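 note: signal also drops with host cell toxicity which is not excluded here; 0% = plate median of DMSO wells and 100% = zero luminescence signal; higher percent means less beta-gal luminescence so fewer parasites; stock transfer was 50 nL into about 50 µL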
ALR inh: human ALR oxidase inhibition via reduced H2O2. P55789. purified ALR, DTT oxidation, H2O2 HRP-luminol luminescence. inhibition, % (test concentration not listed). 3.8% of 290,000 active. AID 485317;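 active = mean and each replicate at 75% or more; inconclusive = only one of the two met; inactive = neither met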;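 note: stock transfer was 7.5 nL into about 7.5 µL; 0% = neutral wells and 100% = wells with inactivated enzyme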
Target sequence (P55789 whole entry, looked up): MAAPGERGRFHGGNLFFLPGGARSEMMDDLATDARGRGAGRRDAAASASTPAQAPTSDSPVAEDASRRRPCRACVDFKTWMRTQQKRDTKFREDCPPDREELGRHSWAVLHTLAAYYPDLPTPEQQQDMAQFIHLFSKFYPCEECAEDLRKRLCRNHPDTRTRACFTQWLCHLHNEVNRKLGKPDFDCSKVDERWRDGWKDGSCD
Beta cell apopt: blocks beta cell apoptosis. INS-1E cytokine-induced death, ATP luminescence, 48 h; percent of positive-control rescue, neutral wells zero. protection from apoptosis, % (no concentration beside the values). 0.8% of 300,000 active. AID 435005;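 active = all replicates at 75% or more, or half of them and the mean; inconclusive = half reach 75% but not the mean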;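 note: 0% = cytokine-treated negative control wells and 100% = positive control rescue; higher means more ATP so stronger rescue from cytokine killing; wells of about 40 µL received 100 nL stock; the first replicate is given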
Calb FLC: affects C. albicans growth with fluconazole. C. albicans CaCi-2 (fluconazole-resistant clinical isolate) + fluconazole, Alamar Blue growth, 48 h. growth inhibition, % (test concentration not listed). 0.57% of 300,000 active;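 active = most replicates above 75%; inconclusive = exactly half above 75%; inactive = most below 75%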;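 note: all wells also contain fluconazole at 8 µg/ml as a sub-toxic cotreatment; 0% = median of DMSO wells and 100% = median of geldanamycin control wells; wells of about 8 µL received 7.5 nL stock; the first replicate is given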
RanGTP-Imp inh: disruptors of Ran-importin-beta complex formation – biochemical, FRET, CFP-Ran, YFP-importin-beta, homogeneous, primary screen. cell-free CFP-Ran/YFP-importin-beta FRET ratio. inhibition, % (test concentration not listed). 1.1% of 300,000 active. AID 2216;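 active = most replicates above 15%; inconclusive = exactly half above 15%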;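 note: 0% = DMSO wells and 100% = Ran loaded with GDP instead of GTP; wells of about 40 µL received 100 nL stock; the first replicate is given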
rRNA inh HTS OD600: further read-out of rRNA inh HTS, marked with its call; OD600 change, %; measured here: OD600 growth;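 optical density of the mix in the first replicate; 0 = DMSO median and -100 = no signal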
rRNA inh HTS RFP: further read-out of rRNA inh HTS, marked with its call; RFP signal change, %; measured here: RFP humanized mutant strains;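 first replicate; 0 = DMSO median and -100 = no signal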
* hit, by the source's call; i = inactive; u = inconclusive; x = not tested or not shown; + = active, no number. Only part of the results is shown; the hit share may differ from the screen's.

The line under a structure holds: FGF22 binding, rRNA inh HTS, rRNA inh HTS OD600, rRNA inh HTS RFP, AF4-AF9 inh, T cruzi inh, ALR inh, Beta cell apopt, Calb FLC, RanGTP-Imp inh
(1) CC(C)(C)NC(=O)CN(C(=O)C1CSC(=O)C1)c1ccc2c(c1)OCCO2 (stereo not drawn)
  x, x, x, x, x, -2, -17, -4, -1, -3.0
(2) CCN(CC)CCSc1nc2ccccc2n1Cc1ccccc1
  i, -4, -6, -2.2, 7.4, 15, -2, 0, -5, u
(3) O=C(O)C1CSC(c2ccc3c(c2)OCO3)N1 (stereo not drawn)
  +, 8, 5, -7.0, -7.4, 1, -17, -5, 7, 4.6
(4) Cc1ccc(-c2cn(-c3ccccc3)c(SCC(N)=O)n2)cc1C
  x, x, x, x, x, -7, -5, -10, 2, 1.8
(5) Cn1c(SCC(=O)Nc2cc(C(C)(C)C)nn2-c2ccccc2)nc2ccccc21
  i, 5, -32, 1.2, 4.5, -12, -27, 9, -19, 1.6
(6) S=c1[nH]nc(-c2ccc(Cl)cc2)n1Cc1ccccc1
  i, -40, -39, -2.8, -3.6, 3, 15, -5, -2, -3.0
(7) CC(Oc1cc2oc(=O)c3c(c2cc1Cl)CCC3)C(=O)NCc1ccccn1 (stereo not drawn)
  i, -12, -18, 0.7, -0.7, 0, -19, -10, 2, 2.1
(8) O=C(NCC1(c2ccccc2)CCCC1)C1(c2ccccc2)CCCC1
  x, x, x, x, x, 22, -4, 4, 2, 8.0
(9) C=CC[C@H]1Cc2c(cccc2[N+](=O)[O-])[C@H](CC=C)N1
  x, -8, -4, 2.4, -0.3, 35, -6, -3, 5, 0.8
(10) Cn1[nH]c(=O)c2ccccc2c1=O
  x, 2, 3, 0.4, -27, -2, 5, -6, 1, 1.8
(11) CCC(C)Cn1c(O)cc2nn(-c3nc4ccccc4s3)c(=O)c-2c1C (stereo not drawn)
  i, -4, 6, 7.8, 0.6, -10, 99*, -2, 13, -3.3
(12) O=C(Cc1cccs1)N/N=C\c1ccc([N+](=O)[O-])s1
  x, -57, -75, -18, 5.3, 84*, -33, 94*, 8, -2.4
(13) COc1ccc(OCC(=O)Nc2ccccc2C(=O)N2CCCC2)cc1
  x, x, x, x, x, -5, 4, -18, -8, 1.6
(14) C=CCOC(=O)Nc1snnc1C
  x, x, x, x, x, -10, x, -4, 10, -0.8
(15) CC1CCCN(C(=O)c2ccc(NC(=O)CC3SC(N4CCCC4)=NC3=O)cc2)C1 (stereo not drawn)
  x, 11, 5, 0.6, -1.2, -9, 30, -6, -2, 1.2
(16) C[C@H](C(=O)NCc1ccccc1)C(=O)c1ccccc1
  i, 4, 14, -3.6, -0.6, -12, -13, 1, 1, 5.4
(17) O=C1CC(c2ccccc2)N1c1ccccc1 (stereo not drawn)
  x, x, x, x, x, -7, 0, -11, -2, 7.9
(18) CCOc1ccc(C(=O)NCC(c2cccs2)N2CCOCC2)cc1 (stereo not drawn)
  i, -1, 0, -0.3, -1.6, x, -1, -2, x, x
(19) Cn1c(=O)c(=O)n(C)c2cc(S(=O)(=O)NCCOc3ccccc3Cl)ccc21
  i, 7, 14, 2.4, 0.5, -5, -8, -3, 13, 3.5
(20) CCOc1ccc(N(CC(=O)NCc2cccnc2)S(=O)(=O)c2ccc(F)cc2)cc1
  i, 1, -5, -0.3, 1.1, 1, -3, -3, 3, 1.8
(21) COc1ccc(C(=O)CN2C(=O)NC(C)(c3ccccc3)C2=O)cc1OC (stereo not drawn)
  x, x, x, x, x, -7, -18, -4, 5, -0.3
(22) CCn1cc(CNC(=O)c2c(-c3c(Cl)cccc3Cl)noc2C)c(C)n1
  x, x, x, x, x, 0, -1, -1, 12, 0.9
(23) O=S1(=O)CCN2C=C(Cl)C=C(Cl)C2=N1
  i, 14, -1, -0.3, -1.4, -15, -24, 2, 0, -1.2
(24) CCCCCn1c(CN2CC(C)OC(C)C2)nc2c1c(=O)n(C)c(=O)n2C (stereo not drawn)
  i, 5, 10, -4.4, 0.1, 6, x, 5, 1, 7.0
(25) Cc1c(C(=O)OCC2CCCO2)[nH]c2c1C(=O)CC(c1ccc(N(C)C)cc1)C2 (stereo not drawn)
  i, -12, -2, -4.2, 12, 12, 56, 7, -5, -0.5
(26) Nn1c(SCC(=O)Nc2ccc(F)cc2F)nnc1-c1cccnc1
  x, x, x, x, x, -22, -10, -4, 2, -3.3
(27) COc1ccc(C2/C=C\CN(C(=O)NC(C)C)CC(=O)N2Cc2ccc(F)cc2)cc1 (stereo not drawn)
  i, 1, -1, -4.2, 1.7, -9, x, -2, -11, 2.7
(28) COc1cccc(CNC(=O)CCC2CCCN(Cc3ccc4c(c3)CCO4)C2)c1 (stereo not drawn)
  i, 4, 3, -5.9, 2.7, 48, x, -8, -1, -2.0
(29) CCCCNCc1cc(OCC)c(OCC(N)=O)cc1Br
  x, x, x, x, x, -1, 1, -2, 4, -0.4
(30) Cc1[nH]c(=O)c(C#N)cc1-c1csc(-c2ccccc2)n1
  i, 16, 9, 1.5, 1.4, 8, 7, -3, -4, 1.6

Part of the list above, as labelled records:
15. CC1CCCN(C(=O)c2ccc(NC(=O)CC3SC(N4CCCC4)=NC3=O)cc2)C1 (stereo not drawn)
  FGF22 binding = x
  rRNA inh HTS = 11
  rRNA inh HTS OD600 = 5
  rRNA inh HTS RFP = 0.6
  AF4-AF9 inh = -1.2
  T cruzi inh = -9
  ALR inh = 30
  Beta cell apopt = -6
  Calb FLC = -2
  RanGTP-Imp inh = 1.2
16. C[C@H](C(=O)NCc1ccccc1)C(=O)c1ccccc1
  FGF22 binding = i
  rRNA inh HTS = 4
  rRNA inh HTS OD600 = 14
  rRNA inh HTS RFP = -3.6
  AF4-AF9 inh = -0.6
  T cruzi inh = -12
  ALR inh = -13
  Beta cell apopt = 1
  Calb FLC = 1
  RanGTP-Imp inh = 5.4
17. O=C1CC(c2ccccc2)N1c1ccccc1 (stereo not drawn)
  FGF22 binding = x
  rRNA inh HTS = x
  rRNA inh HTS OD600 = x
  rRNA inh HTS RFP = x
  AF4-AF9 inh = x
  T cruzi inh = -7
  ALR inh = 0
  Beta cell apopt = -11
  Calb FLC = -2
  RanGTP-Imp inh = 7.9
18. CCOc1ccc(C(=O)NCC(c2cccs2)N2CCOCC2)cc1 (stereo not drawn)
  FGF22 binding = i
  rRNA inh HTS = -1
  rRNA inh HTS OD600 = 0
  rRNA inh HTS RFP = -0.3
  AF4-AF9 inh = -1.6
  T cruzi inh = x
  ALR inh = -1
  Beta cell apopt = -2
  Calb FLC = x
  RanGTP-Imp inh = x

Two of the compounds above, screen by screen:
#4 Cc1ccc(-c2cn(-c3ccccc3)c(SCC(N)=O)n2)cc1C
#5 Cn1c(SCC(=O)Nc2cc(C(C)(C)C)nn2-c2ccccc2)nc2ccccc21
Compound | 4 | 5
FGF22 binding | x | i
rRNA inh HTS | x | 5
rRNA inh HTS OD600 | x | -32
rRNA inh HTS RFP | x | 1.2
AF4-AF9 inh | x | 4.5
T cruzi inh | -7 | -12
ALR inh | -5 | -27
Beta cell apopt | -10 | 9
Calb FLC | 2 | -19
RanGTP-Imp inh | 1.8 | 1.6

Bioassay records: PubChem, Broad Institute
